PrP UTR inh = inhibition of PrP 5' UTR reporter expression; 340,000 compounds, 0.35% hits; AID 488862; cell-based PrP 5' UTR mRNA reporter, plate reader; inhibition, % (test concentration not listed);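 active = every replicate at 50% or more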;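 also: 0 = median of the neutral control wells; tested in H4 reporter cells; numbers are from one replicate; inactives centre near -14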
BJeLR lethal = BJeLR cell viability loss. BJeLR (HRASV12) viability, CellTiter-Glo ATP luminescence, 48 h; reference of the scale not given here. inhibition, % (no concentration beside the values). 300,000 compounds, 0.17% hits. AID 1554;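 active = replicate mean above 50%; inconclusive = above 50% but judged a plate artefact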;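 also: 50 nL library stock added to about 25 µL; numbers are from one replicate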
Sa RN4220 lethal = S. aureus RN4220 growth inhibition; OD600, 16 h; inhibition, % (test concentration not listed); 330,000 compounds, 0.33% hits;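 active = z-score of -3 or lower and OD600 up to 0.18 on both plates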;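 also: plate controls were untreated cells for no effect and reference antibiotic for full effect; stock transfer was 100 nL into about 80 µL; one replicate is shown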
ugtP null kill = compounds lethal to S. aureus RN4220 ugtP deletion mutant; OD600 growth, 16 h; some inactives read as strong as hits; growth inhibition, % (concentration not given with the values); 330,000 compounds, 0.54% hits; AID 1259309;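 active = z-score under -3 and OD600 up to 0.15 on both plates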;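 also: plate controls were untreated wells for no effect and antibiotic for full effect; wells of about 80 µL received 100 nL stock; the first replicate is given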
Mtb hypoxia inh = Mtb hypoxia fluorescent reporter inhibition; M. tuberculosis hypoxia-regulated fluorescent reporter, fluorescence; 300,000 compounds, 0.1% hits; fluorescence inhibition, % (no concentration beside the values); AID 1159583;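 active = 35 to 45% if threefold the growth effect, above 45% if 1.5-fold the growth effect; inactive = the rest, general growth blockers included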;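 also: wells of about 50 µL received 100 nL stock; 0% = vehicle wells and 100% = reference inhibitor wells; whole bacteria with a GFP reporter of the hypoxia response; strong numbers were not always called active; many hits fall short of the cut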
Autofluor counter = flagged as autofluorescent in microsphere protease counterscreen; 360,000 compounds, 3.1% hits; compound autofluorescence counterscreen, microsphere flow cytometry; stronger effect = higher value; fluorescence intensity (concentration not given with the values); AID 624483;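 active = at least 3 SD above the mean of all compounds, about 16000 in these data; inconclusive = too few beads counted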;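 also: 100 nL of 1 mM stock went into each well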
Mtb hypoxia inh growth = further read-out of Mtb hypoxia inh, marked with its call; growth inhibition, %; measured here: M. tuberculosis growth (absorbance);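 0% = vehicle and 100% = reference antibiotic; read after six days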
* hit, by the source's call; ? = inconclusive; nt = no result given.

SMILES	PrP UTR inh	BJeLR lethal	Sa RN4220 lethal	ugtP null kill	Mtb hypoxia inh	Mtb hypoxia inh growth	Autofluor counter
COC(=O)C1CCN(C2=C(NS(=O)(=O)c3ccc(Cl)cc3)C(=O)c3ccccc3C2=O)CC1	-21	-12	19	-11	15	11	4554
CCOc1ccccc1C(=O)Nc1cc(C(=O)NCC(C)C)ccc1Cl	nt	11	13	1	2	11	nt
COc1ccc(C(=S)Nc2ccccc2)cc1	-7	-2	-13	-7	16	6	2750
CCCCN(Cc1ccco1)C(=O)C1CCCN(c2ncnc3c2nc2n3CCCCC2)C1 (stereo not drawn)	-4	4	0.0	-13	-2	16	5021
O=C1CCc2cc(S(=O)(=O)NCCc3ccc(Cl)cc3)cc3c2N1CC3	-18	-1	5.5	0	-8	3	?
CCN(CC)c1nc2ccccc2nc1C(C#N)C(=O)NCCCOC (stereo not drawn)	-2	nt	2.9	-3	nt	nt	2381
CCN1C(=O)C2CCC3C(=NOCC(C)C(OCc4ccccc4)C(C)C)CC(O)C(O)C3C2C1=O (stereo not drawn)	nt	nt	0.2	-3	-8	4	nt
COc1ccc(OC)c(C(O)C(C)NC(C)(C)C)c1 (stereo not drawn)	nt	nt	1.8	5	12	5	nt
COc1cc(/C=C/C(=O)OCC(=O)c2c(N)n(C)c(=O)n(C)c2=O)ccc1OC(F)F	-11	-5	-1.0	-1	5	6	2512
O=C(/C=C/c1cccnc1)/C=C/c1cccnc1	19	nt	3.1	2	nt	nt	3353
COc1ccc(S(=O)(=O)N(C)CC(=O)NCc2ccccn2)cc1	-18	-8	2.5	8	-6	-4	3421
Cc1ccc(N/C=C/C(=O)C(C)(C)C)c(O)c1	-15	-2	4.5	11	6	7	15880
Cc1cccc(NC(=S)N(CCN(C)C)Cc2cc3cccc(C)c3[nH]c2=O)c1	-24	5	-1.7	0	10	7	2272
CN(Cc1ccccc1)C(=O)c1cc(S(=O)(=O)N2CCOCC2)cn1C	-21	6	-7.2	0	10	13	6795
CCCCN(C)CCCNC(=O)c1cc(Nc2ccc(OC)c(OC)c2)nc2ccccc12	-3	4	-0.4	1	-8	-2	3186
S=C1NC2(CCCCC2)NC12CCCCC2	11	-1	6.3	-3	-2	-2	3421
CCCCCCc1c(C)nc(-n2[nH]c(C)c(CCO)c2=O)[nH]c1=O	-17	4	11	3	-9	-2	4055
Cc1c(C(=O)O)sc(=S)n1CCOc1ccccc1	-30	6	4.2	21	0	-4	8890
Cc1cc(NC(=O)c2cccs2)ncc1NC(=O)c1cccc(F)c1	-67	-1	10.0	-16	-1	5	2631
Cc1noc(C)c1-c1nnc(-c2ccc(C(F)(F)F)cc2)o1	-5	1	5.1	10	0	-2	4972
CCOC(=O)c1sc(N2N=C(C)/C(=C\c3ccc(OCC(=O)OC)cc3)C2=O)nc1C	-9	-15	-3.1	-1	-8	-6	9928
CCOC(=O)c1ccc(NC(=O)C2(c3ccccc3)CCCC2)cc1	-33	9	8.6	7	7	9	10755
O=c1nc(N2CCOCC2)nc(NN=Cc2ccc3c(c2)OCO3)[nH]1	nt	nt	0.6	3	-8	-7	nt
O=C(CSc1nnc(Cn2c(=O)sc3ccccc32)n1-c1ccccc1)N1CCCCCC1	-21	nt	2.8	3	nt	nt	5226
COc1ccc(C2CC(c3cccs3)=NN2C(=S)Nc2ccccc2)cc1OC (stereo not drawn)	-21	-21	8.6	79	1	0	2168
CC1(C)CC(=O)C2=C(C1)NC(=O)CC2c1cccc(F)c1 (stereo not drawn)	-8	2	2.8	-2	nt	nt	4635
COc1ccc(C(=O)Nc2nnc(Cc3ccccc3)s2)c(OC)c1	-46	0	nt	nt	nt	nt	3949
Cc1ccc(CN(C(=O)c2ccco2)C(C(=O)NC2CCCC2)c2ccc(N3CCOCC3)cc2)cc1 (stereo not drawn)	-8	6	3.9	14	nt	nt	2523
Cc1ccc(NC(=O)c2cccc(-n3cnnn3)c2)cc1Cl	-3	nt	0.2	-2	7	8	5706
O=C(NS(=O)(=O)Oc1cccc(F)c1)OC[C@@H]1CCCN2CCCCC12 (stereo partly drawn)	-14	8	-0.5	-2	6	-4	4066
COc1ccc(OC)c(CN2CCN(C(=O)Cc3ccccc3)CC2)c1	-23	0	0.0	7	12	7	3447
Cc1ccc(C(=O)NNC(=O)c2ccc3ccccc3c2O)cc1	-18	6	-4.0	1	-6	-11	2940
Cc1ccc(C(C)C)c(OCC(=O)N2CCOCC2)c1	-7	5	0.0	4	nt	nt	3546
CS(=O)(=O)NCCNc1ccc(C(F)(F)F)cc1[N+](=O)[O-]	-11	nt	1.5	3	7	9	4309
O=C(NCCc1ccccc1F)/C(=C/c1cccnc1)NC(=O)c1ccccc1	-6	-9	1.6	1	-1	9	2011
COc1cc(C(=O)NN=Cc2ccc(OC(=O)c3ccccc3Cl)cc2)ccc1O	nt	nt	-2.3	2	5	3	nt
Cc1cnc(C(=O)OCC(=O)c2cccc3ccccc23)cn1	-5	-1	1.0	-8	-5	-3	5237
COc1ccc(N(C(C)C(=O)N/N=C(\C)C(C)(C)C)S(C)(=O)=O)cc1 (stereo not drawn)	-2	3	nt	nt	nt	nt	2260
COc1cc([N+](=O)[O-])ccc1N/C=C/C(=O)c1cccs1	nt	6	7.7	-10	5	1	10581
O=C(Nc1nnc(-c2ccccc2)o1)C1CCCN1S(=O)(=O)c1cccs1 (stereo not drawn)	-11	8	2.3	6	0	3	5950
COCCN(C(=O)COC(=O)CC1CCCCC1)c1c(N)n(Cc2ccccc2)c(=O)[nH]c1=O	-7	1	-0.6	1	-5	11	6239
O=C(CSc1nc2ccccc2n1CC(=O)N1CCCC1)Nc1ccc2c(c1)OCO2	-1	-3	-0.4	-6	8	8	10201
CCCCC(=O)Nc1ccc(N2CCN(c3ccc(F)cc3)CC2)cc1	-7	6	1.0	2	12	-3	3803
CCCCN(Cc1ccco1)S(=O)(=O)c1c[nH]c(C(=O)OC)c1	4	8	3.5	-1	2	8	6132
CN(C/C=C/c1ccccc1)C1CCCCC1	-1	0	-0.2	1	11	10	2790

Part of the list above in order of heavy-atom count, low to high.
SMILES	PrP UTR inh	BJeLR lethal	Sa RN4220 lethal	ugtP null kill	Mtb hypoxia inh	Mtb hypoxia inh growth	Autofluor counter
Cc1ccc(C(C)C)c(OCC(=O)N2CCOCC2)c1	-7	5	0.0	4	nt	nt	3546
COc1cc([N+](=O)[O-])ccc1N/C=C/C(=O)c1cccs1	nt	6	7.7	-10	5	1	10581
Cc1ccc(C(=O)NNC(=O)c2ccc3ccccc3c2O)cc1	-18	6	-4.0	1	-6	-11	2940
COc1ccc(N(C(C)C(=O)N/N=C(\C)C(C)(C)C)S(C)(=O)=O)cc1 (stereo not drawn)	-2	3	nt	nt	nt	nt	2260
O=C(NCCc1ccccc1F)/C(=C/c1cccnc1)NC(=O)c1ccccc1	-6	-9	1.6	1	-1	9	2011

(next part)
SMILES	PrP UTR inh	BJeLR lethal	Sa RN4220 lethal	ugtP null kill	Mtb hypoxia inh	Mtb hypoxia inh growth	Autofluor counter
O=C(COC(=O)/C=C/c1ccco1)Nc1cccc([N+](=O)[O-])c1	-1	-12	4.3	-9	1	14	1935
CC(C)(OC(=O)c1ccc(C(F)(F)F)cc1)c1cc2ccccc2c(=O)o1	-18	nt	4.6	2	4	4	4060
Cc1cc(C)n(-c2ccc(C(=O)NC(C)C)cc2)n1	-32	1	3.9	6	1	-2	10595
CC(=O)N/C(=C\c1ccccc1)C(=O)NC(C)C(=O)O (stereo not drawn)	-35	-15	nt	nt	nt	nt	4040
Clc1ccc(-c2csc(=Nc3cccnc3)n2CCCn2ccnc2)cc1Cl	-7	5	2.1	2	-2	9	2071
Clc1ccc(Cn2c(-c3cccnc3Cl)nc3ccccc32)cc1	-17	1	0.3	11	1	0	8232
CCOC(=O)c1cnc(SCc2nc(N)nc(Nc3ccccc3)n2)nc1N	3	-1	-1.0	-1	nt	nt	4900
CCN1C(=O)CC(c2ccc(OC(C)C)cc2)C1=O (stereo not drawn)	-8	-4	3.2	3	16	11	3960
O=C(O)C(=Cc1ccccc1)Cc1ccccc1	-14	nt	3.3	-2	12	8	4088
CCOC(=O)C1=C(C)N=c2sc(=Cc3ccc(OCC(=O)O)c(OC)c3)c(=O)n2C1c1ccc(OC)cc1 (stereo not drawn)	nt	nt	34	15	-5	6	nt
Oc1ccc(F)cc1-c1cc(-c2ccc3c(c2)OCCO3)n[nH]1	-112	-5	59	76	1	2	2431
CNC(=S)NN=Cc1cc(C)ccc1C	nt	nt	1.1	5	10	16	nt
CCCc1cc(C(N)=O)c(NC(C)=O)s1	nt	nt	4.7	2	nt	nt	10424
COc1ncnc2sc(-c3ccccc3)cc12	19	13	18	-7	1	6	8513
N#Cc1ccccc1NC(=O)CSc1nnc(-c2ccncc2)o1	-9	-4	4.0	2	16	4	4715
COc1ccc(C(=O)N=C2SC3CS(=O)(=O)CC3N2c2ccc(N(C)C)cc2)cc1OC (stereo not drawn)	6	6	-1.1	1	-17	-4	5775
Cc1ccccc1Oc1nc2ccccn2c(=O)c1/C=C(\C#N)C(=O)Nc1c(C)n(C)n(-c2ccccc2)c1=O	-16	-10	7.5	1	12	7	2526
O=C(NCc1cc([N+](=O)[O-])ccc1O)c1cccnc1Sc1ccc(Cl)cc1	-13	-7	8.8	14	5	8	5028
COC(=O)CCSc1nc(N2CCOCC2)c2c(c1C#N)CC(C)(C)OC2	-8	-13	4.0	3	2	-7	3249
O=C(CSc1nnc(SCc2ccc(Cl)cc2)s1)N1CCOCC1	-24	-12	2.0	-3	6	5	10423
O=C(N/N=C/c1cc2c(cc1Cl)OCO2)c1ccncc1	-5	-7	nt	nt	nt	nt	2479
Oc1ccccc1-c1nnc(-c2ccc(C(F)(F)F)cc2)o1	-55	4	4.1	6	nt	nt	3316
CC1(OC(=O)C2CCCC2)C(=O)C=C2C=C(c3ccsc3)N(C(CO)CO)C=C2C1=O (stereo not drawn)	-13	7	5.3	3	5	2	2879
Cc1cc(N2CCOCC2)nc(-c2ccc([N+](=O)[O-])cc2)n1	-22	-17	-0.8	-1	-7	5	2398
CC(=O)c1cccc(NC(=O)C2CCCN(S(=O)(=O)c3ccccc3)C2)c1 (stereo not drawn)	-11	-5	-0.1	4	1	-13	12934
O=C(Cn1nnc(-c2ccccc2)n1)N/N=C/c1ccco1	-17	1	nt	nt	nt	nt	4973
COc1cccc(C2C3=C(CCCC3=O)Nc3nc(-c4cc(OC)c(OC)c(OC)c4)nn32)c1 (stereo not drawn)	-36	-4	3.9	-1	-14	-2	8704
C=CCNc1cc(N2CCCC2)ccc1[N+](=O)[O-]	-1	-12	6.0	8	13	1	2727
CCOc1cc(/C=N/NC(=O)C(=O)Nc2cc(Cl)ccc2C)ccc1O	-8	1	nt	nt	nt	nt	2005
Cc1cc(NC(=O)NN2CCOCC2)nn1-c1c(Cl)cc(Cl)cc1Cl	-10	-2	1.5	-1	0	-6	4865
COc1ccc(C=NNc2nccnc2Cl)cc1	nt	nt	-0.1	13	8	6	nt
CCOc1cc2[nH]c(=O)n(CCC(=O)NCCc3ccc(OC)c(OC)c3)c(=O)c2cc1OCC	-11	11	4.3	-9	7	7	3862
Cc1ccc(S(=O)(=O)c2nc(C(C)(C)C)oc2N2CCOCC2)cc1	-7	5	6.7	-1	-2	4	16379*
CCOC(=O)N/N=C/c1c(F)cccc1F	-19	8	nt	nt	nt	nt	2614
CC(C)CNC(=O)COC(=O)c1cc(S(=O)(=O)N(C)C)ccc1N1CCCC1	4	4	3.7	6	1	1	2451
CC(=O)c1cccc(CN2CCCCC2C(=O)Nc2ccc(Oc3ccccc3)nc2)c1 (stereo not drawn)	-3	-1	0.0	-1	-3	9	12064
Cc1c(NC(=O)Nc2c(Cl)cccc2Cl)c(=O)n(-c2ccccc2)n1C	-11	0	-1.2	7	6	-1	3758
CCOC(=O)C1(CCCc2ccccc2)CCN(S(=O)(=O)N(C)C)CC1	-19	-14	9.6	13	18	6	3639
CNc1nc2sc3c(c2c(=O)n1C)CC(C)(C)SC3	-9	-3	1.1	4	4	6	3077
CCN(CC)CCCn1c2c(c(SCC(=O)Nc3nc(C)cs3)nc1=O)CCC2	-20	10	2.9	7	5	5	5181
CCCCCNC(=O)c1cccnc1SCC(=O)Nc1ccccc1OC	-20	6	1.6	0	8	2	2223
Cn1c(N)c(C(=O)COC(=O)CCC2CCCCC2)c(=O)n(C)c1=O	-12	-3	5.0	1	2	5	3071
